# Source: PubChem BioAssay (National Center for Advancing Translational Sciences (NCATS))
# TRPML1 agonist: agonists of human TRPML1 channel | Q9GZU1 | TRPML1-expressing cells, Ca2+ dye fluorescence, FDSS; host cell line not named in the record; reference of the full effect not given here | activation, % (test concentration not listed) | 410,000 compounds, 0.12% hits | AID 624414; in the data active = activation above about 50%; inconclusive = about 30% to 50%; inactive = below about 30%; also: 0% is about no effect; the text of the record puts the active cut at 80%
#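 In this qHTS format, compounds were pin-transferred onto Ca8-dye-loaded TRPML1-DL cells induced with Tet overnight, and intracellular Ca2+ fluorescence was recorded kinetically for 110 s after a 10 s baseline. A subsequent 4uM final 54-4 (EC80) addition followed by a second 110 s read served as the antagonist phase.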
# TRPML1 blocker: human mucolipin-1 channel inhibition | Q9GZU1 | TRPML1-inducible cells, Ca2+ dye fluorescence, FDSS; active compounds read low; inhibition of EC80 agonist-evoked calcium signal | activity change, negative = inhibition, % (concentration not given with the values) | 390,000 compounds, 0.02% hits; in the data active means activity change below about -50%; inconclusive means about -30% to -50%; inactive means above about -30%;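 also: stimulus is agonist 54-4 at its EC80 concentration; % is scaled to controls: 0 for no effect and ±100 for the full control effect; the text of the record puts the active cut at -80%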
#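 Calcium fluorescence in TRPML1-DL cells induced overnight with Tet: a 110 s read after compound pin addition, then a 110 s antagonist read after challenge with 54-4 at 4 uM final (EC80).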
# TRPV1 potentiator: potentiators of human vanilloid receptor 1 (TRPV1); Q8NER1; TRPV1-expressing cells, Fluo-8 calcium influx, capsaicin EC20 potentiation; host cell line not named in the record; control for the full effect not named in the record; potentiation, % at 8.33 µM; 320,000 compounds, 0.02% hits; AID 540277; active means potentiation above 80%; inconclusive means 30% to 80%; inactive means below 30%; also: 0% is about no effect
# Target sequence (Q8NER1 whole entry, looked up): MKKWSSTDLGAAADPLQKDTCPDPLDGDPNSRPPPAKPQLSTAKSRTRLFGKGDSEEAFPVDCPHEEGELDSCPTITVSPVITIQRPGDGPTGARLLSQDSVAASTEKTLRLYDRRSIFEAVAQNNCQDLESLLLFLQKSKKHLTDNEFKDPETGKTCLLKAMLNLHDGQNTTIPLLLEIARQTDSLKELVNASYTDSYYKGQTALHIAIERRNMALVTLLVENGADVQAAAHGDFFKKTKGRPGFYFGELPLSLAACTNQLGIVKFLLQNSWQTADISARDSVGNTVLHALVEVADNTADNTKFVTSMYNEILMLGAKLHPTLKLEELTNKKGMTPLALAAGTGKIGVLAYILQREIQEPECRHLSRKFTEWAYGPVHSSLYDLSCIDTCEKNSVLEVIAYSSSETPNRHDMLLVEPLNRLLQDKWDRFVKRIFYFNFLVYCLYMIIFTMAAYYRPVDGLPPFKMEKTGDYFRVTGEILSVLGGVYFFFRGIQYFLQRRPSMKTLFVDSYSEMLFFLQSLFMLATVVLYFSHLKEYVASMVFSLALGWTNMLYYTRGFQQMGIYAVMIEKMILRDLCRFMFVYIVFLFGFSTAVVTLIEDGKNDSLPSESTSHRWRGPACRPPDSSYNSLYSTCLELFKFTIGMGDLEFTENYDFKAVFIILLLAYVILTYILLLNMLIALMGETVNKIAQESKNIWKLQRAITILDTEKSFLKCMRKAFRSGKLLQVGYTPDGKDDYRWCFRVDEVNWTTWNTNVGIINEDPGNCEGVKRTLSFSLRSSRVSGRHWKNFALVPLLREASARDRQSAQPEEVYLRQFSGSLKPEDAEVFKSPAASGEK
#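 Cells expressing TRPV1 were dye-loaded with Fluo-8 and read kinetically: 10 s baseline, 3 min after compound (agonist portion), then 2 min after EC20 capsaicin (allosteric enhancer portion). Calcium-bound dye fluorescence at 480/520 nm.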
# Menin-MLL FL inh: menin-MLL binding inhibition, fluorescein peptide; 290,000 tested, under 10 active; FP activity change, % at 61.4 µM; Fluorescence polarization, fluorescein-MLL peptide displacement from menin; inconclusive = falling polarisation curve, or a change in total fluorescence; inactive = total fluorescence flat and polarisation flat or rising; no compound was filed as active; the % refers to the polarisation; negative = inhibition;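 also: % of control where 0% means no effect; inhibitors lower the polarisation; unlabelled MLL peptide was the positive control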
# Sfp inh: inhibitors of Bacillus subtilis Sfp phosphopantetheinyl transferase | Biochemical Sfp PPTase activity, qHTS | 310,000 compounds, 3.5% hits | Q9F4F7 | Potency, µM, without a hit: max response, negative = inhibition, usual class: inhibitors | AID 1490; active = well fitted inhibition curve with a large enough effect; inconclusive = small, poorly fitted or top-dose-only effect, or another doubt; inactive = no such curve, though single readings can be large or run the other way;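 also: the enzyme is Sfp with the accession as filed and its product quenches rhodamine fluorescence; potency is read from the fitted curve at half-maximal effect; 0% = enzyme reaction without inhibitor and -100% = no enzyme wells; top concentration of the series not given in the record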
#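 Reaction rates are the 30-min fluorescence difference (ex 525, em 598 nm) in wells containing 15 nM Sfp, 5 uM rhodamine-CoA and 12.5 uM BHQ-2-YbbR at pH 7.6 with 10 mM MgCl2.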
# ClpP mod: qHTS Assay for Activators of ClpP; ATP-dependent Clp protease proteolytic subunit (Bacillus subtilis (strain 168)), P80244; purified B. subtilis ClpP, FRET peptide cleavage, 20 min; Potency, µM (highest dose often 57.5 µM), without a hit: at the top dose activity change, negative = active; 340,000 compounds, 1.9% hits; AID 651965, 2013; active = well fitted falling curve with a large enough effect; inconclusive = small, poorly fitted or top-dose-only effect; inactive = no such curve, though single readings can be large or run the other way; also: potency is read from the fitted curve at half-maximal effect; the source files actives as falling curves though it sought activators and does not explain the sign; nearly all actives have a fitted effect of over 65% in size; many hits overshoot -100%
# Target sequence (P80244 whole entry, looked up): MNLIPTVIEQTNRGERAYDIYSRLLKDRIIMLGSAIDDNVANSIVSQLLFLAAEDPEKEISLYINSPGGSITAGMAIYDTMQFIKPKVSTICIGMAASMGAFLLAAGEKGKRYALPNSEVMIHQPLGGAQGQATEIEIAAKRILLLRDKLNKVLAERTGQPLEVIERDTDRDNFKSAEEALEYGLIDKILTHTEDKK
#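 Purified B. subtilis ClpP, 10 microg/mL final in Tris/HCl pH8 with KCl, BSA, glycerol and Tween-20, cleaved an Abz/nitrotyrosine-quenched decapeptide. Fluorescence (ex 320, em 430) was read at 0 and 20 min at room temperature. Delta was normalized to 5.8 microM ADEP and DMSO/no-enzyme controls.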
# PINK1 expr mod: PINK1 expression modulation | PINK1 immunofluorescence, high-content cytometry, 24 h | Potency, µM (highest dose often 76.6 µM), inactives show at the highest dose activation (PINK1 increase), hits mostly activators | 410,000 compounds, 0.2% hits; active = well fitted activation curve with a large enough effect; inconclusive = small, poorly fitted or top-dose-only effect; inactive = flat fitted curve, though single readings scatter; cell line not stated here;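 also: potency is read from the fitted curve at half-maximal effect; % of control where 0% means no effect; nearly all actives have a fitted effect of over 65% in size; a mitochondrial uncoupler was the plate control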
#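 PINK1 protein level read as immunofluorescence by microplate cytometer in a fixed, stained stable cell line after 24 h exposure to five compound concentrations, with CCCP as control.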
# Starred values were filed as active, the others as inactive; ? = inconclusive; nt = no result given; & = joins results of further samples; [ ] = dose if it differs, or a comment.
SMILES,TRPML1 agonist,TRPML1 blocker,TRPV1 potentiator,Menin-MLL FL inh,Sfp inh,ClpP mod,PINK1 expr mod
O=C(c1cc(F)c(F)cc1Cl)N1CCN(CCc2ccccc2)CC1,2.0,17,1,0.2,-1%,nt,3.6%
O=C(CN1CCCC1)Nc1ccc(Oc2ccc(NC(=O)CN3CCCC3)cc2)cc1,-0.6,-17,25,-1.5,14%,1.1%,-2.4%
O=C1CC[C@H](N2C(=O)c3ccccc3C2=O)C(=O)N1,-0.5,8,-3,2.3,-7%&15%,-0.9%,0.9%
Cc1nc2ccc(Br)cc2c2c1CC(CBr)O2 (configuration not stated),1.3,26,-12,-3.3,2%,nt,-1.1%
CN(/N=C/c1cc(Cl)ccc1O)C1=NS(=O)(=O)c2ccccc21,1.5,4,-10,-4.7,5%,-0.7%,0.0%
CC(=O)N(Cc1ccc(F)cc1)C1=C(NCc2ccccc2)C(=O)c2ccccc2C1=O,-0.8,6,-2,-3.6,-3%,-3.8%,-2.4%
S=C(NCCc1ccc(Cl)cc1)NCc1ccco1,1.2,49,0,?,?,nt,0.4%
CCOCCCNC(C(=O)Nc1ccc(OC)c(Cl)c1)c1ccccc1 (configuration not stated),1.7,-8,-14,0.4,8%,-0.4%,0.8%
COc1ccc(-c2cc3n(n2)CCc2nc4ccccc4n2-3)cc1,-1.0,-12,-13,-1.3,-6%,-28%,-0.5%
COc1ccc(CCNc2ncnc3c2c(-c2ccccc2)cn3-c2cccc(Cl)c2)cc1OC,74*,-3,nt,nt,nt,?,1.9%
CC(Oc1ccc2c3c(c(=O)oc2c1)CCCC3)C(=O)NCCCn1ccnc1 (configuration not stated),-1.0,10,-23,0.9,-15%,3.9%,-0.5%
CCOC(=O)C(CC)(CC)/C(C)=N/NC(=O)CC#N,-0.3,24,-3,3.0,-1%,0.9%,2.3%
CCOC(=O)c1[nH]c(C)c(CCC(=O)Nc2c(C)cc(C)cc2C)c1C,0.3,-6,nt,nt,nt,?,6.7%
CCOC(=O)c1ccc(NC(=O)c2c(N)n(C)c(=O)[nH]c2=O)cc1,-0.4,-17,nt,nt,nt,28%,0.2%
CC(C)C(=O)Nc1csc(C(F)(F)F)c1-c1ccccc1,-0.3,-12,-9,4.6,1%,0.9%,0.9%
O=C(Nc1ccccc1Cl)NC1(C(=O)NCC2CCCO2)CCCCC1 (configuration not stated),-0.9,-14,1,0.4,18%,nt,2.6%
CCOc1ccc(-n2nc(C(=O)NCCOC)c3ccccc3c2=O)cc1,1.8,2,8,1.3,16%,0.3%,3.3%
CCN(CC)CCNC(=O)c1c(O)c2cc(OC)c(OC)cc2[nH]c1=O,0.1,23,-44,-0.3,8%,-8.9%,-1.4%
Cc1cc(OC(=O)c2ccc(Cl)cc2Cl)nc(C)n1,-0.2,4,nt,3.1,26%,-0.6%,nt
COc1cccc(CC(=O)Nc2cccc3ccccc23)c1,1.0,14,-23,6.2,8%,nt,0.4%
Cc1ccccc1NC(=O)CSc1nnc(-c2ccccn2)o1,-0.2,-16,3,3.9,-20%,-2.5%,-0.9%
Clc1ccc(-c2csc3ncnc(Cl)c23)cc1,-0.4,16,-11,3.1,9%,nt,-0.5%
CC(=O)N1CCN(c2nc3cc4c(cc3nc2NS(=O)(=O)c2ccccc2)OCCO4)CC1,1.8,-14,?,-2.6,19%,?,-3.1%
FC(F)(F)c1nnc2ccc(N3CCCC3)nn12,-0.2,7,-7,-3.7,9%,3.5%,-0.6%
Cc1ccccc1NC(=O)C1CC(=O)n2ncnc2N1 (configuration not stated),3.4,4,-9,1.6,-19%,1.0%,1.5%
COc1ccccc1C(=O)N1CCN(C(=O)[C@H]2O[C@@H](n3ccc(N)nc3=O)[C@H](O)[C@@H]2O)CC1,-0.1,nt,nt,nt,nt,-0.8%,0.5%
Cc1c(OCC(=O)NCc2ccncc2)ccc2c3c(c(=O)oc12)CCC3,-0.7,1,-39,nt,3%,3.9%,1.8%
CN(C)c1ccc(C(=O)NCc2ccc3c(c2)CCN3C(=O)c2ccc(Cl)cc2)cc1,-0.4,-16,nt,nt,nt,-2.9%,0.7%
CCOC(=O)N1CCC(NC(=O)CC2C(=O)NCCN2Cc2ccc(C)cc2)CC1 (configuration not stated),0.2,4,-1,nt,7%,-2.0%,1.8%
CC(=O)N1CCC2(CC1)OC(=O)C(C)=C2C(=O)Nc1cc(C)ccc1C,0.7,-8,nt,nt,nt,0.2%,2.3%
O=C(Cc1ccccc1)NCCc1csc2nc(-c3ccc(Cl)cc3)nn12,0.0,6,nt,nt,nt,-3.9%,0.3%
CCOC(=O)CSc1ccc2nnc(-c3ccncc3)n2n1,-0.4,0,?,-1.5,9%,4.7%,2.1%
O=C(O)c1cc(-c2ccccc2)n(-c2ccc(Cl)cc2Cl)n1,-0.1,-4,11,-2.9,9%,-1.7%,-0.7%
O=C(Cc1ccccc1)Nc1c(C(=O)N2CCN(c3ccc(F)cc3)CC2)oc2ccccc12,0.5,-1,nt,nt,nt,-11%,-5.2%
Cc1ccc(OC2=NS(=O)(=O)c3ccccc32)cc1,0.3,-5,1,4.9,13%,-4.6%,nt
COc1cc(C)c(C(=O)Oc2cc(C)c(C(=O)O)c(O)c2)c(O)c1,nt,nt,-3,4.9,11%,-1.6%,1.0%
COc1ccc(CNC(=O)c2ccc3c(c2)N=C(C)c2c(C)ccc(C)c2S3)cc1,1.8,15,nt,nt,nt,-0.2%,1.3%
C=CCC1(C(=O)NCCO)CCN(C(=O)OC(C)(C)C)CC1,-0.5,-3,-7,0.7,4%,-0.8%,-1.4%
CCC(C)N(CCNC(=O)CC1Oc2ccccc2NC1=O)C1CCCCC1 (configuration not stated),-0.8,19,-5,3.8,4%,0.6%,-1.0%
Cc1nonc1NC(=O)CSc1nc2ccccc2o1,0.0,-6,14,-0.1,16%,nt,-0.6%
O=C(NCc1ccco1)C1CCCN(c2ncnc3c2nc2n3CCCCC2)C1 (configuration not stated),0.7,12,?,0.1,10%,nt,-0.2%
CCc1ccccc1NC(=O)CC(=O)Nc1ccccc1CC,0.6,-14,13,-3.8,14%,?,0.4%
Cc1ccc(F)cc1NC(=O)c1cccc2nccnc12,-0.1,6,10,1.9,6%,0.2%,-13%[38.3 µM]
COCCNC(=S)N/N=C1\CC(C)CC(C)(C)C1 (configuration not stated),-0.1,17,-13,-0.5,50µM*,-1.0%,-1.1%
O=C(NN(c1ccccc1)c1ccccc1)c1ccccc1F,0.4,-4,-1,-0.3,0%,nt,7.3%
COc1ccc(-c2csc3ncn(-c4ccccc4OC)c(=O)c23)cc1OC,0.2,-8,17,5.1,12%,1.2%,2.8%
Clc1ccc(-c2noc(/C=C/c3ccccc3)n2)cc1,-0.1,-1,-2,1.0,7%,2.2%,9.8%
O=C(NCCc1ccc(Cl)cc1)c1ccc2c(c1)N(Cc1ccccc1)C(=O)CS2,-0.1,-19,nt,nt,nt,-1.7%,1.0%
Cn1nc(C(=O)NCc2ccco2)c2ccccc2c1=O,0.5,-7,-3,2.0,2%,-0.6%,0.5%
CCn1cc(C(=O)NCCN(CC(C)C)CC(C)C)c(=O)c2cc(S(=O)(=O)N3CCOCC3)ccc21,-0.1,23,-30,-1.2,8%,nt,2.6%
Cc1cc(C(=O)Nc2ccc3[nH]ccc3c2)no1,0.3,-2,-8,-4.2,3%,-1.9%,1.5%
O=C(CSc1ncn[nH]1)NN(c1ccccc1)c1ccccc1,-0.4,0,4,8.8,25%,nt,-2.5%
Cc1cc(Br)ccc1NC(=O)CCS(=O)(=O)c1cccc2nsnc12,2.8,-4,nt,nt,nt,-5.7%,0.0%
CCOc1ccc(C(C)=O)cc1COC(=O)CNC(=O)C12CC3CC(CC(C3)C1)C2,1.4,-5,nt,nt,nt,nt,1.2%
Cc1ccc(CC(=O)Nc2nccs2)cc1C,-0.4,-13,8,-2.8,12%,nt,-1.8%
COc1cc(CO)cc(Br)c1OCc1cccnc1,0.4,-3,-5,0.1,13%,-0.4%,0.2%
C/C(=C\C(=O)c1ccc(Cl)cc1)Nc1ccc(Br)cc1,3.8,-9,nt,nt,nt,-0.4%,-2.4%
Cc1ccc(O)c(C2=NOC(O)(C(F)(F)F)C2)c1 (configuration not stated),-0.9,5,20,1.3,2%,-3.5%,0.1%
Cc1cc(Cl)ccc1N=Cc1c(O)n(C)c(=O)n(C)c1=O,nt,nt,-5,2.6,0%,nt,nt
O=C(CCNC(=O)c1ccc(Br)cc1)Nc1cccc(S(=O)(=O)N2CCCCC2)c1,0.2,8,0,nt,nt,1.3%,-1.2%

# Some of these compounds in order of number of heavy atoms, low to high.
SMILES,TRPML1 agonist,TRPML1 blocker,TRPV1 potentiator,Menin-MLL FL inh,Sfp inh,ClpP mod,PINK1 expr mod
Cc1ccc(O)c(C2=NOC(O)(C(F)(F)F)C2)c1 (configuration not stated),-0.9,5,20,1.3,2%,-3.5%,0.1%
COc1cc(CO)cc(Br)c1OCc1cccnc1,0.4,-3,-5,0.1,13%,-0.4%,0.2%
Cc1cc(Cl)ccc1N=Cc1c(O)n(C)c(=O)n(C)c1=O,nt,nt,-5,2.6,0%,nt,nt
Cc1cc(Br)ccc1NC(=O)CCS(=O)(=O)c1cccc2nsnc12,2.8,-4,nt,nt,nt,-5.7%,0.0%

# Next part:
SMILES,TRPML1 agonist,TRPML1 blocker,TRPV1 potentiator,Menin-MLL FL inh,Sfp inh,ClpP mod,PINK1 expr mod
CCc1ccc(C(O)c2ncc(-c3ccccc3C)[nH]2)cc1 (configuration not stated),-1.1,nt,nt,nt,nt,2.1%,7.0%
CC(=O)Cn1cnc2c(cnn2-c2ccc(C)c(C)c2)c1=O,-0.6,-12,-26,-14,-5%,-11%,1.0%
Cc1cc(C)nc(NC(=O)c2cnc3sccn3c2=O)n1,-0.6,-10,-8,0.6,-10%,4.1%,3.4%
O=C(c1ccco1)N1CCc2ccccc21,1.1,-9,1,0.2,16%,-1.8%,1.4%
C=CCSC1=NC(=O)/C(=C/c2cccs2)S1,0.5,-6,-5,11,-9%,-7.7%,-0.1%
